Vaccinia Venus = inhibitors of vaccinia virus (Venus reporter); Vaccinia virus Venus reporter expression, fluorescence; Potency, µM (doses to about 36.5 µM), without a hit: at the top dose activity change, negative = inhibition, most hits filed as inhibitors; 0.46% of 330,000 active; active means well fitted inhibition curve with a large enough effect; inconclusive means small, poorly fitted or top-dose-only effect; inactive means no such curve, though single readings can be large or run the other way; tested in A549 cells; also: nearly all actives have a fitted effect of over 30% in size; inactives centre near -10
Vaccinia mCherry = vaccinia inhibition (mCherry reporter) | Vaccinia virus mCherry reporter infection, fluorescence; about a quarter of the inactives have no number | Potency, µM (doses to about 36.5 µM), without a hit: top-dose activity change, negative = inhibition, most hits filed as inhibitors | 0.63% of 310,000 active; active = well fitted inhibition curve with a large enough effect; inconclusive = small, poorly fitted or top-dose-only effect; inactive = no such curve, though single readings can be large or run the other way; tested in A549 cells; also: nearly all actives have a fitted effect of over 35% in size; inactives centre near -10
Numbers without * were called inactive; i = inactive; ? = inconclusive; nt = not tested or not shown. % is scaled to controls: 0 for no effect and ±100 for the full control effect; potency is read from the fitted curve at half-maximal effect. Hits appear at their usual frequency; 0.82% or so of the library scored in one or more.

entry	molecule	Vaccinia Venus	Vaccinia mCherry
1	C=CCn1c(SC(C)C(=O)Nc2ccc(Cl)cn2)nnc1C1CC1 (configuration not stated)	-16.2%	i
2	Cc1c(Br)c([N+](=O)[O-])nn1CC(=O)Nc1cccc2nonc12	8.2%	1.3%
3	CCOC(=O)c1cnc2nc(C)nn2c1N	-2.5%	-14.7%
4	CCOc1ccc(-c2cccc(NS(=O)(=O)c3ccc(F)cc3F)c2)nn1	-0.6%	-7.6%
5	Cc1c(-c2ccc(Cl)cc2)[n+](=O)c2c(n1[O-])CCCC2	-8.7%	-9.6%
6	CCn1cc(C(=O)NCCCN2CCCC(C)C2)c(=O)c2cc(S(=O)(=O)N3CCc4ccccc4C3)ccc21 (configuration not stated)	?	-18.7%
7	CC(C)C(=O)N[C@@H]1c2ccccc2CC[C@H]1OCc1ccccc1	-11.5%	-13.2%
8	Cc1ccc(CN2COc3c(Cl)cc4c(-c5ccccc5)cc(=O)oc4c3C2)cc1	-2.8%	-13.7%
9	CCOC(=O)CN(c1ccccn1)S(=O)(=O)c1ccccc1	-9.8%	-18.0%
10	Cc1ccc(S(=O)(=O)N(C)[C@H]2C[C@H]3c4[nH]c5ccccc5c4CCN3C[C@H]2[C@H](C)O)cc1	-1.4%	i
11	CN1C(c2ccc(F)cc2)=CS/C1=C(\C#N)c1nnc2n1-c1ccccc1SC2	-21.3%	-23.5%
12	COc1ccc(S(=O)(=O)Nc2ccc(Cc3ccncc3)cc2)cc1OC	-29.7%	?
13	O=C(CN1C(=O)CCOc2ccccc21)Nc1cccc(S(=O)(=O)N2CCOCC2)c1	-11.4%	-8.3%
14	O=C(O)C1CCN(c2ncnc3ccc(-c4ccccc4C(F)(F)F)cc23)CC1	0.0%	14.1%
15	CCCC(=O)N1CCCC(c2nc(-c3cccs3)no2)C1 (configuration not stated)	-16.2%	i
16	CCOC(=O)C1(CC2CCCCO2)CCN(S(=O)(=O)c2ccc(C)s2)CC1 (configuration not stated)	-6.4%	i
17	CCC1(c2ccccc2)NC(=O)N(CC(=O)N(C)CC(=O)Nc2cccc(F)c2)C1=O (configuration not stated)	-8.6%	i
18	CSc1cccc(NC(=O)CC(c2ccc(F)cc2)N2Cc3ccccc3C2=O)c1 (configuration not stated)	-14.8%	-16.0%
19	COc1ccccc1C(=O)NNC(=O)C(=O)Nc1ccc(C)cc1	-14.4%	?
20	COc1ccc(N2CCN(C(=O)CSc3nnc4c(C)cc5cc(C)ccc5n34)CC2)cc1	0.6%	-15.3%
21	C=C1CCN(C(C(=O)OC)C(C)C)S(=O)(=O)c2ccc(F)cc21 (configuration not stated)	7.8%	-11.3%
22	CCOc1ccc(N2C(=O)CC(N3CCN(C(=O)CN4CCCC4)CC3)C2=O)cc1 (configuration not stated)	-10.0%	-13.1%
23	O=C(COC(=O)c1cc[n+]([O-])cc1)Nc1ccc2c(c1)OCCO2	-10.2%	i
24	O=C(O)CCn1c(=O)[nH]c(=O)n(CCC(=O)O)c1=O	2.8%	3.8%
25	CC1CCN(CCCNC(=O)c2coc3nc4ccccc4nc23)CC1	2.0%	-7.1%
26	O=C(Nc1nc(-c2ccncc2)cs1)C1COc2ccccc2O1 (configuration not stated)	-26.0%	-12.4%
27	COc1ccc(NC(=O)c2c(C(=O)Nc3ccccc3)sc3nc(C)cc(=O)n23)cc1	7.3%	2.0%
28	CCC1NC(=O)c2cc3ccccc3cc2-n2c1nc1cc(F)ccc1c2=O (configuration not stated)	-19.9%	i
29	Cc1ccc(C(=O)Nc2cccnc2)cc1C	-12.2%	-3.3%
30	CC(=O)c1cccc(CN2CCC(C(=O)Nc3ccc(Oc4cccnc4)cc3)CC2)c1	-29.8%	?
31	COc1ccc(C(=O)/C=C/c2ccc3c(c2)OCCO3)cc1	-4.0%	-4.1%
32	COc1ccc(OCc2nc(-c3ccc(F)c(F)c3)cs2)cc1	2.1%	-27.7%
33	Cc1c(NC(=O)c2nn3c(c2Br)NC(c2ccccc2)CC3C(F)(F)F)c(=O)n(-c2ccccc2)n1C (configuration not stated)	-6.8%	i
34	O=C(c1ccccc1)N1N=C(c2ccco2)CC1c1cccs1 (configuration not stated)	2.5%	-18.7%
35	Oc1ccc(O)c(C=NNC(=S)NC2CC3CC2C2C=CCC32)c1 (configuration not stated)	?	?
36	COc1ccccc1N1CCN(c2cc(C)nc3nc(C)nn23)CC1	1.7%	-1.8%
37	COc1cc(/C=C/C(=O)OCC(=O)NCCC2=CCCCC2)ccc1O	-23.8%	-22.7%
38	O=C(Nc1cccc(Cl)c1)C1CCCN1S(=O)(=O)c1cccc2cccnc12 (configuration not stated)	-10.6%	-16.4%
39	Cc1cc(C)nc(NC(=O)c2ccc(Cl)cc2Cl)n1	1.7%	-16.4%
40	CC(=O)c1ccc(OC2(C)CCN(Cc3ccc4c(c3)OCCO4)C2)cc1 (configuration not stated)	20.3%	14.0%
41	COc1cccc(NC(=O)C2CCCN2C(=O)Nc2cccc(F)c2)c1 (configuration not stated)	9.5%	3.2%
42	COc1ccc(Cn2c(O)c(C=NCCCn3ccnc3)c(=O)[nH]c2=O)cc1	-5.3%	nt
43	COc1ccc(OCc2nnc(-c3ccccc3)o2)cc1	4.8%	6.4%
44	CCSc1nnc(-c2cc(Br)ccc2NC(C)=O)c(=O)[nH]1	-17.2%	-5.1%
45	CCC(=O)N1CCC2(CC1)Oc1ccc(Cl)cc1C(=O)C21CC(c2ccc(Cl)cc2)=NO1 (configuration not stated)	-24.2%	i
46	COc1ccc(S(=O)(=O)NCCCn2ccnc2)cc1C(C)(C)C	-19.2%	-3.6%
47	O=C(CCN1CC1)OCCOC(=O)CCN1CC1	-10.6%	-19.9%
48	Cc1cccc(OCc2nc(-c3ccccn3)n[nH]2)c1	1.1%	nt
49	CCCCCCn1c(SCC(=O)c2ccccc2)nc2c1c(=O)[nH]c(=O)n2C	-21.0%	?
50	S=c1nc2[nH]c3ccccc3c2n[nH]1	-6.5%	-14.5%
51	COc1ccc(C(=O)OCC(=O)Nc2ccccc2)cc1[N+](=O)[O-]	-15.2%	-3.0%
52	Cc1ccc(C(=O)Nc2ccc(N3CCN(C)CC3)cc2)c(Cl)c1	-8.4%	i
53	O=C(Cc1cccs1)Nc1nnc(SCC(=O)NC2CCCCC2)s1	-4.6%	-9.7%
54	OC[C@@H]1CN(Cc2ccc(-c3ccccc3)cc2)C[C@H](n2cnc3c(NC4CCCC4)ncnc32)O1	?	?
55	CCOC(=O)C(CCCOc1ccccc1C)C(=O)OCC	-22.7%	nt
56	CC1CCC(C(C)C)C(OC(=O)C2=C3c4ccccc4S(=O)(=O)N3CC2)C1 (configuration not stated)	-5.9%	-16.9%
57	COCCn1c(Cc2ccccc2)nnc1SCC(=O)N(C)C	-5.1%	-16.6%
58	Cc1nc2ccccc2cc1C(=O)O	-4.6%	-4.8%
59	COc1ccc(S(=O)(=O)N2CCCN(CC(=O)Nc3ccccc3F)CC2)cc1	-8.5%	i
60	Cc1cc2ncc(C(=O)Nc3ccccc3)c(C)n2n1	-7.6%	-2.0%

(listing goes on)
entry	molecule	Vaccinia Venus	Vaccinia mCherry
61	CCCn1c(C)cc(/C=C(\C#N)C(=O)OCC(=O)N(C)c2c(N)n(Cc3ccccc3)c(=O)[nH]c2=O)c1C	-8.7%	-5.8%
62	COc1ccccc1N1CCN(/N=C/c2c(C)nn(-c3ccccc3)c2C)CC1	-19.9%	-26.9%
63	COc1cc2nc(SCC(=O)Nc3ccccc3C)n3nc(CCn4c(C)nc5ccccc54)nc3c2cc1OC	0.5%	-0.2%
64	O=c1[nH]c(CSc2ncn[nH]2)nc2ccccc12	0.5%	-29.6%
65	COc1ccc(C(=S)N2CCC(C(N)=O)CC2)cc1Br	-10.2%	-8.1%
66	O=C(CCn1cnc2ccccc2c1=O)Nc1ccc(S(=O)(=O)N2CCCCC2)cc1	-4.0%	-8.3%
67	COc1ccccc1OCC(=O)Nc1ccc(S(=O)(=O)N2CCCC2)cc1	-6.4%	13.7%
68	O=C(Nc1nc(-c2ccc(Br)cc2)cs1)c1cccnc1	-3.4%	-4.8%
69	COc1ccc(OC)c(C2=Nn3c(nnc3-c3ccncc3)SC2)c1	-8.1%	-6.4%
70	CCN(CC)CCCNC(=O)CSc1nc2nc(C)c(Cc3ccccc3C)c(C)n2n1	-8.8%	-9.0%
71	O=C(c1ccc(C(F)(F)F)cc1)N1CCC(=O)N(C(COCc2ccc(Cl)cc2)Cc2ccccc2)CC1 (configuration not stated)	?	-9.3%
72	Cc1nnc(SCSc2nnc(C)s2)s1	-14.3%	nt

73: CN(C)Cc1c(C(=O)N/N=C/c2cccc(OCc3ccc(F)cc3)c2)nnn1-c1nonc1N
74: CCN1C(=O)C(O)(CC(=O)c2ccc3c(c2)OCCO3)c2ccccc21 (configuration not stated)
75: CCOC(=O)c1c(-c2ccc(C)cc2)csc1NC(=O)C1CC=CCC1C(=O)O (configuration not stated)
76: C=CCN1CN(Cc2ccco2)CNC1=S
77: CCOC(=O)c1oc2ccc3c(c2c1C)C(=O)CC1(CCN(C(=O)OCC)CC1)O3
78: CC(C)c1ccc(C2N3CC4(C)CN2CC(c2ccccc2)(C3)C4=O)cc1 (configuration not stated)
79: N/C(Cc1ccc([N+](=O)[O-])cc1)=N\OC(=O)c1ccc(Br)o1
80: CC1CCCC(NC(=O)COC(=O)COc2ccc(C#N)cc2)C1C (configuration not stated)

assay / entry	73	74	75	76	77	78	79	80
Vaccinia Venus	-2.4%	2.8%	-29.5%	-5.7%	-6.0%	-7.5%	-12.2%	-8.1%
Vaccinia mCherry	-11.7%	i	nt	i	nt	-8.1%	-16.9%	-12.5%

81: Cn1cc(-c2csc(C(C)(O)c3cccc(F)c3)n2)cn1 (configuration not stated)
82: CCCC(=O)NC(Nc1cccc(C(F)(F)F)c1)C(Cl)(Cl)Cl (configuration not stated)
83: Cc1ccc2c(=O)cc(CSCC(=O)Nc3nnc(C)s3)[nH]c2c1
84: Cc1noc(C)c1C(=O)N1CCC1(C)C(=O)NS(=O)(=O)c1ccc(Br)cc1 (configuration not stated)
85: CCCC(=O)c1ccc(N2CCN(C(=O)c3ccccc3Br)CC2)c(F)c1
86: N#CC1=C(N)OC2=C(C(=O)CCC2)C1c1cccs1 (configuration not stated)
87: COc1c2ccc(OCC/C(C)=C/C(=O)C=C(C)C)cc2nc2occc12
88: Cc1cccc(N(C(=O)c2snc(C(N)=O)c2N)C(C(=O)NCC2CCCO2)c2ccc(N(C)C)cc2)c1 (configuration not stated)

assay / entry	81	82	83	84	85	86	87	88
Vaccinia Venus	0.4%	?	-3.9%	-8.6%	-20.8%	5.5%	?	2.1%
Vaccinia mCherry	24.7%	?	-15.2%	17.4%	nt	6.6%	-30.6%	7.1%

89: c1ccc(-n2ncc3c2ncn2nnnc32)cc1
90: Cc1ccc(S(=O)(=O)N2C(c3cccc(Cl)c3)CC=C(C(=O)O)C2c2cccc(Cl)c2)cc1 (configuration not stated)
91: COc1ccc(CN(CC2CCC(C(=O)O)CC2)C(=S)Nc2ccccc2OC)cc1 (configuration not stated)
92: O=C(OCC(=O)N1CCc2ccccc21)c1cccc(S(=O)(=O)N2CCCc3ccccc32)c1
93: C=CC1=CCN(S(=O)C(C)(C)C)[C@H]1CCO (some centres not stated)
94: O=C1Cc2cccc(=O)c(O)c2C(=O)O1
95: COc1cc(OC)cc(-c2nnc(NC(=O)CCS(=O)(=O)c3ccc(F)cc3)o2)c1
96: CC(OC(=O)c1ccc2c(c1)OCCO2)C(=O)NC1CCCCC1C (configuration not stated)

assay / entry	89	90	91	92	93	94	95	96
Vaccinia Venus	4.1%	9.1%	-6.8%	-14.8%	-9.4%	-23.8%	7.94µM*	-1.4%
Vaccinia mCherry	0.4%	i	i	-7.1%	-1.0%	i	5.62µM*	-23.5%

97: COc1ccc(S(=O)(=O)N(C)C)cc1NC(=O)CSc1nc(N)cc(N)n1
98: C=CCN(c1ccccc1)S(=O)(=O)c1cccc(C(=O)NCC(c2cccs2)N2CCOCC2)c1 (configuration not stated)
99: Cc1c(Cl)cccc1NC(=S)N1CCN(Cc2ccc3c(c2)OCO3)CC1
100: COC(=O)CC1C(C)(C)C(OC(C)=O)C2CC3C4CC(=O)OC(c5ccoc5)[C@]4(C)CCC3[C@@]1(C)C2=O (some centres not stated)
101: COC(=O)C1=C(C)NC(C)=C(C(=O)OC)C1c1ccc(NC(C)=O)cc1
102: Cc1cc(Cn2nc(C(=O)NCc3cccs3)cc2-c2ccccc2)on1
103: CCn1cc2nc(SCc3cccc(Cl)c3)n(Cc3ccc(C)cc3)c(=O)c2n1
104: COCCn1nnnc1C(c1ccccc1OC)N1CCc2ccccc2C1 (configuration not stated)
105: COc1cc2c(cc1NC(=O)C(C)Oc1ccc(Cl)cc1Cl)oc1ccccc12 (configuration not stated)
106: CCC(=O)/C(=C(/O)c1ccccc1)c1nc2ccccc2[nH]1

assay / entry	97	98	99	100	101	102	103	104	105	106
Vaccinia Venus	3.3%	-22.8%	-0.7%	-17.9%	-9.3%	-6.9%	?	-6.3%	-10.1%	-6.8%
Vaccinia mCherry	i	?	-7.0%	i	i	i	-29.5%	-12.4%	-18.0%	i

Some of the entries so far, field by field:
103: CCn1cc2nc(SCc3cccc(Cl)c3)n(Cc3ccc(C)cc3)c(=O)c2n1
- Vaccinia Venus = ?
- Vaccinia mCherry = -29.5%
100: COC(=O)CC1C(C)(C)C(OC(C)=O)C2CC3C4CC(=O)OC(c5ccoc5)[C@]4(C)CCC3[C@@]1(C)C2=O (some centres not stated)
- Vaccinia Venus = -17.9%
- Vaccinia mCherry = i
97: COc1ccc(S(=O)(=O)N(C)C)cc1NC(=O)CSc1nc(N)cc(N)n1
- Vaccinia Venus = 3.3%
- Vaccinia mCherry = i
105: COc1cc2c(cc1NC(=O)C(C)Oc1ccc(Cl)cc1Cl)oc1ccccc12 (configuration not stated)
- Vaccinia Venus = -10.1%
- Vaccinia mCherry = -18.0%

Source: PubChem (National Center for Advancing Translational Sciences (NCATS))
